# HPGD inh: blocks human HPGD enzyme activity; purified HPGD, NADH fluorescence kinetic, PGE2 substrate; AID 894; Potency, µM, without a hit: top-dose activity change, negative = inhibition, usual class: inhibitors; 150,000 tested, 4.3% active; active = well fitted inhibition curve with a large enough effect (not every such curve was filed as active); inconclusive = small, poorly fitted or top-dose-only effect, or another doubt; inactive = no such curve, though single readings can be large or run the other way;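 further: top concentration of the series not given in the record; plate controls included wells without enzyme; inactives centre near -10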
# Target sequence (P15428 whole entry, looked up): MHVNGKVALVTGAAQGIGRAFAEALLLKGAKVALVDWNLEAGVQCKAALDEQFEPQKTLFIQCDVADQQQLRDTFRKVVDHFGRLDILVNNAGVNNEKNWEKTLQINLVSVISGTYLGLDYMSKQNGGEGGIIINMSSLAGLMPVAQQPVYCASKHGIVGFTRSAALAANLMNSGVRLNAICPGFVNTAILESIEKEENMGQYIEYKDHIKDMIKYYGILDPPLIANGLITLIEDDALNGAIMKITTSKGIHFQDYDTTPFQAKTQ
#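 NADH formation kinetics: reaction with 30 uM PGE2 and 1 mM NAD+ (final), 20 nM enzyme, Tris-HCl pH 8 with Tween 20, after 15 min compound preincubation at room temperature. Fluorescence change, last versus first of five reads.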
# Active calls of the source: *; ? = inconclusive; & = joins results of further samples. On the % scale 0 is the no-effect control and ±100 the full control effect; potency means the concentration at half of the fitted maximal effect. The list is partial; rates above refer to the full screens.
HPGD inh	SMILES
-5.6%	CCn1c(SCC(=O)Nc2cccc(OC)c2)nnc1-c1ccc(Cl)cc1
-11.7%	CCCOc1cccc(C(=O)NC(=S)Nc2cccc(NC(=O)c3ccccc3Cl)c2)c1
-8.2%	CC(OC(=O)Cc1coc2cc3c(cc12)CCC3)C(=O)NCc1ccc2c(c1)OCO2 (stereo not given)
-25.5%	CCOC(=O)c1c(NC(=O)Cn2nnc3ccccc32)sc2c1CCC(C)C2 (stereo not given)
-10.5%	Cc1ccc(-n2nnnc2SCC(=O)Nc2ccc3c(c2)COC3=O)cc1C
-17.2%	Cc1nn(Cc2ccc(Cl)cc2)c(C)c1NC(=O)c1noc2c1CCCCC2
3.1%	CC(=O)Nc1ccc(NC(=O)COC(=O)c2ccc(C)s2)cc1
-3.0%	Cc1cc(C(=O)NCc2cccnc2)n(-c2ccccc2)n1
-19.0%	COc1ccccc1OC(=O)C1CC(=O)N(c2ccc(Cl)cc2)C1 (stereo not given)
0.0%	N#Cc1ccc(N2C(=O)[C@@H]3C(C(=O)C(c4ccccc4)c4ccccc4)=NN[C@@H]3C2=O)cc1
-2.5%	CSc1ccccc1-n1nnnc1SCC(=O)Nc1cc(C)ccc1C
-24.4%	O=C(N/N=C/c1ccc(O)cc1O)c1cc(-c2ccccc2)n[nH]1
-5.5%	COc1ccc(N(C(=O)CNC(=O)c2ccco2)C(C(=O)NC2CCCCC2)c2ccco2)cc1 (stereo not given)
-14.2%	Cn1c(=O)n(C)c2cc(/C=C3/NC(=O)N(Cc4ccccc4)C3=O)ccc21
-12.0%	COc1cc2c(cc1NC(=O)c1cc(-c3ccncc3)nc3ccccc13)oc1ccccc12
?	COCCNC(=O)CSc1nc(-c2ccccc2)c(-c2ccccc2)o1
-12.7%	N#CC1=C(N)N2C(=C(C#N)C13CCCCC3)SC1CCCCC12O (stereo not given)
?	O=C(O)C1CSC2c3ccccc3C(=O)N12 (stereo not given)
-25.9%	CC1CC1C(=O)NCCc1ccc(Cl)cc1 (stereo not given)
5.2%	Cc1ccc(N(CC(=O)O)S(C)(=O)=O)cc1Cl
-4.9%	N#CN(CC(N)=O)c1nc(N2CCCCC2)nc(N2CCCCC2)n1
-13.7%	O=C(C1CCC(=O)N1C1CCCCC1)N1CCN(c2ccc(F)cc2)CC1 (stereo not given)
0.7%	COc1ccc(S(=O)(=O)NC(CC(=O)NCc2ccco2)C(C)C)cc1 (stereo not given)
?	CCN(CC)S(=O)(=O)c1ccc2c3c(cccc13)C(=O)N2
1.6%	Cc1ccc(S(=O)(=O)N2CCCC2)cc1[N+](=O)[O-]
-14.2%	Cn1c(C(C#N)C(=O)Cc2cccc3ccccc23)nc2ccccc21 (stereo not given)
?	CCOC(=O)C1CCCN(C(=O)CC(C)c2ccccc2)C1 (stereo not given)
-12.7%	NC(=O)C1CCN(CC(=O)c2c[nH]c3ccc(F)cc23)CC1
-7.6%	CCn1c(C)nc2cc(C(=O)NNC(=O)CCC3CCCC3)ccc21
1.5%	Cc1nc(SCC(=O)Nc2ccc(F)cc2)c(C#N)c(C)c1CC(=O)c1ccc(Br)cc1
-3.2%	CCCC(C(=O)NC1CCCCC1)N(Cc1ccco1)C(=O)CNS(=O)(=O)c1ccccc1 (stereo not given)
4.2%	Cc1cccc(-c2nc3ccccc3c(=O)n2NC(=O)c2cccs2)c1
-5.0%	Cc1ccc(CN2CCN(/N=C/c3ccc(C(F)(F)F)cc3)CC2)cc1
-6.2%	COc1ccc(N=C2NC(=O)S/C2=C\c2ccc(N(C)C)cc2)cc1
-8.2%	CCOc1ccc(-c2nn[nH]n2)cc1OCC
?	COc1cc2c(cc1NC(=O)COC(=O)C1CC(=O)N(Cc3ccco3)C1)oc1ccccc12 (stereo not given)
-24.3%	Cc1ccc2cc(CN(C(=O)c3ccco3)c3ccccc3C)c(=O)[nH]c2c1
-6.4%	O=C1CCC(C(=O)Nc2cccc(C(F)(F)F)c2)N1 (stereo not given)
-9.6%	CO[C@@H]1O[C@@H]2COC(c3ccccc3)O[C@@H]2[C@@H](OC)[C@@H]1O (stereo not given in full)
?	COc1ccc(/C=C/C(=O)N(C)C2CCS(=O)(=O)C2)cc1OC (stereo not given)
-4.8%	CC(=O)Nc1ccc2c(c1)nc(CCN1CCN(C)CC1)n2C
-12.4%	COc1ccc(S(=O)(=O)N(CCc2ccccc2)CC(=O)O)cc1Cl
-12.5%	c1ccc(CNc2nc3ccccc3n2CCN2CCOCC2)nc1
-1.4%	COC(=O)[C@@H]1C[C@@]2(O)[C@H](O)[C@H](O)[C@H](O)C[C@H]2N1Cc1cc(OC)cc(OC)c1
-7.8%	Cc1ccccc1NC(=O)C1CC(=O)N(c2ccc3c4c(cccc24)CC3)C1 (stereo not given)
-4.1%	N/C(Cn1nnc(-c2ccccc2)n1)=N\O
-7.3%	O=C(NCCSCc1ccco1)Nc1cccc(Cl)c1
-16.1%	CCOC(=O)N1CCC(c2nc3ccccc3[nH]2)CC1
-15.2%	Cc1cccc(OCCCC(=O)NC(C)c2ccccc2)c1 (stereo not given)
?	NC(=O)c1nn(-c2ccccc2)nc1N
1.0%&-7.2%&1.8%	CN1C(C)(C)CCCC1(C)C
?	Cc1ccccc1-n1c(=O)c(C#N)cc2c(=O)n3ccccc3nc21
-10.3%	Cc1ccc(C(=O)OCC(=O)NCc2ccc3c(c2)OCO3)s1
-6.1%	COc1cccc(/C(O)=C2/C(=O)C(=O)N(c3cc(C)on3)C2c2cccs2)c1 (stereo not given)
-22.8%	N#C/C(=C\C1CC2C=CC1C2)c1nc2ccccc2[nH]1 (stereo not given)
-19.6%	C=C(C)COc1ccc(-c2[nH]ncc2-c2ccc(OC)c(OC)c2)c(O)c1
-8.0%	COC(=O)[C@H](C)NC(=O)Nc1ccccc1C(F)(F)F
-8.0%	CC(C)(C)S(=O)(=O)c1ccc(S(=O)(=O)C(C)(C)C)s1
-35.0%	CCc1cccc(NC(=O)NC(=O)Cn2nnc(C(=O)OC)c2C(=O)OC)c1
-5.5%	CCCC(C)NC(=O)/C=C/c1cccc([N+](=O)[O-])c1 (stereo not given)

# Continued:
HPGD inh	SMILES
-14.6%	O=C(CN1CCOCC1)Nc1ccccc1NC(=O)C1CCN(c2ncccn2)CC1
-15.9%	O=C(CCn1c2c(c3ccccc31)CCCC2)NNC(=O)c1ccccc1Cl
-6.7%	COc1ccc(N(CC(=O)Nc2ccc(F)c(Cl)c2)S(=O)(=O)c2c(C)noc2C)cc1
-9.4%	Cc1noc(C)c1S(=O)(=O)N(CC(=O)NCc1ccc2c(c1)OCO2)c1ccc(C(C)C)cc1
-4.1%	COc1ccccc1NC(=O)N1CCCC1C(=O)Nc1ccc(NC(C)=O)cc1 (stereo not given)
?	CCOC(=O)c1c(C)c(C(=O)NCCCOC)c(C)n1C
-18.1%	O=C(NNc1ccccc1Cl)C(O)(c1cccc(C(F)(F)F)c1)c1cccc(C(F)(F)F)c1
-6.7%	CCN=C(NCC)SC1CC(=O)N(c2cccc(OCC)c2)C1=O (stereo not given)
1.5%	COc1ccc(NC(=O)C2CC(=O)N(Cc3ccc(C)cc3)C2)cc1S(=O)(=O)N1CCCCC1 (stereo not given)
-1.9%	CCCCSc1n[nH]c(N)n1
-3.3%	CC(C)NS(=O)(=O)c1ccc(OCC(=O)Nc2ccccc2F)cc1
-9.5%	Cn1ccs/c1=N\S(=O)(=O)c1ccc(Br)cc1
0.8%	CCOC(=O)Cn1c(=S)[nH]c2c(oc3ccc(Cl)cc32)c1=O
?	Cc1c(CC(C)(C)C(=O)O)n(Cc2ccc(Cl)cc2)c2ccc(F)cc12
-6.7%	C=CCNC(=S)NNC(=O)C(CCC(C)C)CC(C)O (stereo not given)
-6.8%	CCCCCCN1C=CC(=C/C=C(\C#N)C(=O)OCC)C=C1
-8.5%	NC(=O)Cn1c2[n+](c3ccccc31)CC(O)CS2 (stereo not given)
4.8%	Cc1ccc(N2CC(C(=O)OCC(=O)C(C)(C)C)CC2=O)cc1C (stereo not given)
-8.8%	COC(=O)c1c(OC)cc2c(c1C)Oc1c(Cl)c(OC(C)=O)c(Cl)c(C)c1C(=O)O2
-13.5%	Cc1ccccc1Nc1nc(N)nc(COC(=O)c2ccc(O)cc2)n1
-13.7%	COc1ccc2nc(NC(=O)c3ccc(-c4cccc([N+](=O)[O-])c4)o3)sc2c1
-8.5%	Cc1nc2ccccc2c(=O)n1NS(C)(=O)=O
-16.6%	O=C(COc1ccc(Cl)cc1)Nc1ncccn1
2.3%	CCOC(=O)/C(C#N)=C1/SC(C)C(=O)N1c1ccc(Br)cc1 (stereo not given)
31.6µM*	c1nc(COc2nsnc2N2CCOCC2)cs1
-3.5%	Cc1cc(C(F)(F)F)nn1CCCNC(=O)c1cnccn1
-8.0%	CCOC(=O)Cc1c(C)nc(-c2ccccc2)[nH]c1=O
-7.8%	CCCCc1c(C(=O)O)cc(OC)cc1C(=O)O
-12.1%	CC(=O)Nc1ccc(OCC(=O)c2ccc(C)cc2C)cc1
0.0%	O=C(CN1C(=O)NC2(CCCCC2)C1=O)NCCC1=CCCCC1
-4.7%	O=C(NC1CC2CCCC(C1)N2Cc1cccs1)N1CCOCC1 (stereo not given)
-10.6%	COc1ccc2c(c1)C(=O)[C@H](OC(=O)Nc1ccc(C)c(Br)c1)[C@@H](c1ccc(OC)c(Br)c1)O2
-3.1%	C/C(=N\NC(=O)c1ccccn1)C12CC3CC(CC(C3)C1)C2
-8.7%	O=C(Nc1cccc2cccnc12)c1cccc(N2C(=O)CCC2=O)c1
-7.6%	COc1ccc(C(=O)NC(=S)Nc2cccc(Cl)c2N2CCOCC2)cc1[N+](=O)[O-]
-29.4%	CC(=O)c1cc2c(cc1NS(=O)(=O)c1ccc(C)cc1)OCO2
-17.3%	CC(C)CN(C(=O)CN1CCN(c2ccccc2O)CC1)c1c(N)n(CC(C)C)c(=O)[nH]c1=O
3.0%	O=C(CN1C2CCC1CC(NC(=O)Nc1ccccc1)C2)NCc1ccco1 (stereo not given)
-14.1%	O=S(=O)(c1cc(F)cc(F)c1)N1CCN(c2ncccn2)CC1
-1.9%	CCOC(=O)CNC(=O)Nc1cccc(Cl)c1C
-20.9%	CCOC(=O)c1sc(N)c(C(=O)OCC)c1COC(=O)C1CC(=O)N(Cc2ccco2)C1 (stereo not given)
-11.8%	CCCC1CCc2c(sc(N)c2C(N)=O)C1 (stereo not given)
-11.2%	c1ccc(CC2CCN(C(c3cccs3)c3nnnn3C3CCCC3)CC2)cc1 (stereo not given)
-7.0%	Cc1cc(C)c2nc(N3CCCC(C(=O)NCCN4CCOCC4)C3)sc2c1 (stereo not given)
-1.0%	COc1ccc(C(=O)NC2CCSC2=O)cc1 (stereo not given)
5.3%	CCCCCCN1C2=NCCN2c2ccccc21
-1.4%	COCCn1nnnc1CN1CCC(O)(c2cccc(C(F)(F)F)c2)CC1
-7.9%	O=C(Nc1ccc2nc[nH]c2c1)c1ccco1
-6.7%	CN1CCN(CCC(=O)Nc2ccc3c(c2)OCO3)CC1
?	c1ccc(Sc2cnc3ccccc3n2)cc1
-10.2%	O=C(CCN1C(=O)c2ccccc2C1=O)NCc1ccncc1
-7.4%	Cc1ccc(C(=O)Nc2c(C)n(C)n(-c3ccccc3)c2=O)cc1S(=O)(=O)N1CCOCC1
-6.8%	Cc1sc(NC(=O)Cn2c(=O)oc3ccccc32)nc1-c1ccc(Cl)cc1
-14.3%	COc1ccc(OC)c(S(=O)(=O)N(C)CC(=O)N2CCN(c3ccccc3)CC2)c1
-4.2%	CSC(=Nc1cccc(C)c1)NC#N
-2.1%	CC/C(=N\N=C1\SC(C)C(=O)N1Cc1ccco1)c1ccccc1 (stereo not given)
-1.2%	NC(=O)CC1NC(=O)c2ccccc21 (stereo not given)
-11.5%	CCOC(=O)c1c(C)oc2c(F)c(F)c(F)c(F)c2c1=O
-24.7%	CCOc1ccccc1NC(=O)CSc1nnc(-c2ccco2)n1Cc1ccco1
-9.4%	CS(=O)(=O)N1CCC(C(=O)Nc2ccc3c(c2)OCO3)CC1

# The listing continues.
HPGD inh	SMILES
-2.0%	COc1ccc(NC(=O)CC2(Cc3ccccc3)CCOC(C)(C)C2)cc1 (stereo not given)
-7.1%	COc1ccc(N2CCN(C(CNC(=O)C(=O)NCCc3c[nH]c4ccccc34)c3ccco3)CC2)cc1 (stereo not given)
-18.3%	CCn1cc([N+](=O)[O-])c(C(=O)N2N=C(c3ccc(O)c(OC)c3)CC2c2ccccc2O)n1 (stereo not given)
25.1µM*	O=C(CCCSc1nc2ccccc2s1)Nc1nccs1
-18.8%	Cc1cccc(NC(=S)NNC(=O)CCn2nc(C)c([N+](=O)[O-])c2C)c1
15.8µM*	CC(C)c1ccc(Oc2cccc(C(=O)/C(C#N)=C/N(C)C)c2)cc1
-1.3%	Cc1nnc(NC(=O)NC(C)N2C(=O)C3C4C=CC(C4)C3C2=O)s1 (stereo not given)
-13.8%	COc1ccc(C)cc1NC(=O)CNc1ccc(C(C)=O)cc1
-5.1%	N#CCCn1nc(-c2ccccc2)cc1Nc1ccccc1NC(=O)C(F)(F)F
-2.6%	O=C(CCn1c2c(c3ccccc31)CCCC2)NNC(=O)c1cccc([N+](=O)[O-])c1

# High-throughput results as filed in PubChem BioAssay.
